ClpP mod = qHTS Assay for Activators of ClpP; ATP-dependent Clp protease proteolytic subunit (Bacillus subtilis (strain 168)), P80244; purified B. subtilis ClpP, FRET peptide cleavage, 20 min; Potency, µM (doses to about 57.5 µM), without a hit: at the top dose activity change, negative = active; 340,000 tested, 1.9% active; active = well fitted falling curve with a large enough effect; inconclusive = small, poorly fitted or top-dose-only effect; inactive = no such curve, though single readings can be large or run the other way; further: potency means the concentration at half of the fitted maximal effect; the source files actives as falling curves though it sought activators and does not explain the sign; nearly all actives have a fitted effect of over 65% in size; many hits overshoot -100%
Target sequence (P80244 whole entry, looked up): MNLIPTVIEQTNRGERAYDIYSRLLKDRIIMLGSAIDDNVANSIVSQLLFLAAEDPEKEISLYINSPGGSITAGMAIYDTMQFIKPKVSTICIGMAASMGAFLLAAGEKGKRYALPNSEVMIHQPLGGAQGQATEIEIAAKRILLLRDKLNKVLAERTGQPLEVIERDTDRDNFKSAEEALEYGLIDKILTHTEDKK
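Purified B. subtilis ClpP, 10 microg/mL final in Tris/HCl pH8 with KCl, BSA, glycerol and Tween-20, cleaved an Abz/nitrotyrosine-quenched decapeptide. Fluorescence (ex 320, em 430) was read at 0 and 20 min at room temperature. Delta was normalized to 5.8 microM ADEP and DMSO/no-enzyme controls.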
TRPML1 inh = inhibitors of human TRPML1 channel; 390,000 tested, 0.02% active; TRPML1-inducible cells, Ca2+ dye fluorescence, FDSS; active compounds read low; inhibition of EC80 agonist-evoked calcium signal; activity change, negative = inhibition, % (test concentration not listed); in the data active means activity change below about -50%; inconclusive means about -30% to -50%; inactive means above about -30%;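 further: stimulus is agonist 54-4 at its EC80 concentration; on the % scale 0 is the no-effect control and ±100 the full control effect; compound concentration not given in the record; the text of the record puts the active cut at -80%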
Target sequence (Q9GZU1 whole entry, looked up): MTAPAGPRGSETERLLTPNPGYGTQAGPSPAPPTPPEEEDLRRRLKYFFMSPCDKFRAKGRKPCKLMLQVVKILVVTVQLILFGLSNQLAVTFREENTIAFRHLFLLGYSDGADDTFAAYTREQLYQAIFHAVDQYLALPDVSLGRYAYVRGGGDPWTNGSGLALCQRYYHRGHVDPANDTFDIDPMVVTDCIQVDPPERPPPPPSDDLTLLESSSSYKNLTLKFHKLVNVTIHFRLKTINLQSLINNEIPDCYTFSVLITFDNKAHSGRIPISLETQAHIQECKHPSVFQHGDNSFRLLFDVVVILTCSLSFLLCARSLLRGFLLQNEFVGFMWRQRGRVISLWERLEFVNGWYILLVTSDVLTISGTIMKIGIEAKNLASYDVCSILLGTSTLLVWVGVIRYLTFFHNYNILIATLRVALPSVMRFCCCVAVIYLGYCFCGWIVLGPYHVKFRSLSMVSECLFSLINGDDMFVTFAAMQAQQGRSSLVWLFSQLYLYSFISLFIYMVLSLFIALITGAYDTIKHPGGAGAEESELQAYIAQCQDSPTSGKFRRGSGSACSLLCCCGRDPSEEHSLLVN
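Calcium fluorescence in TRPML1-DL cells induced overnight with Tet: a 110 s read after compound pin addition, then a 110 s antagonist read after challenge with 54-4 at 4 uM final (EC80).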
gsp ag = agonists of gsp mutant (McCune-Albright syndrome); gsp mutant cells, cAMP HTRF, 30 min; control for the full effect not named in the record; 340,000 tested, 0.13% active; AID 624287; Potency, µM (highest dose often 76.9 µM), without a hit: at the top dose activation (cAMP increase), hits mostly activators; active = well fitted activation curve with a large enough effect; inconclusive = small, poorly fitted or top-dose-only effect, or another doubt; inactive = no such curve, though single readings can be large or run the other way; cell line not stated here;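 further: phosphodiesterase inhibitor Ro 20-1724 added with compounds to block cAMP breakdown; potency means the concentration at half of the fitted maximal effect; nearly all actives have a fitted effect of over 60% in size; about a fifth of the inactives were tested at one dose only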
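Cells in DMEM/10% FBS with G418 were pretreated with compounds in DMSO plus […] (300 uM stock) for 30 min at 37C. cAMP was measured by HTRF (cAMP-d2 plus anti-cAMP antibody-K) after 30 min at room temperature.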
TRPML1 agonist = agonists of human TRPML1 channel; Q9GZU1; TRPML1-expressing cells, Ca2+ dye fluorescence, FDSS; host cell line not named in the record; reference of the full effect not given here; activation, % (test concentration not listed); 410,000 tested, 0.12% active; AID 624414; in the data active = activation above about 50%; inconclusive = about 30% to 50%; inactive = below about 30%; further: 0% is about no effect; the text of the record puts the active cut at 80%
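Calcium fluorescence on an FDSS kinetic reader gave the read-out. Tet-induced TRPML1-DL cells were plated overnight, dye-loaded (Ca8 with quencher, 45-90 min, room temperature, dark), then read 110 s after compound addition, and again 110 s after 4uM final 54-4 (EC80).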
Menin MLL FP FL = inhibitors of human menin-MLL interaction, wild-type MLL peptide; 290,000 tested, under 10 active; FP activity change, % at 61.4 µM; Fluorescence polarization, fluorescein-MLL peptide displacement from menin; inconclusive = falling polarisation curve, or a change in total fluorescence; inactive = total fluorescence flat and polarisation flat or rising; no compound was filed as active; the % refers to the polarisation; negative = inhibition;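 further: % of control where 0% means no effect; inhibitors lower the polarisation; unlabelled MLL peptide was the positive control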
gsp antag = antagonists of gsp mutant (McCune-Albright syndrome); gsp-mutant cells, cAMP HTRF, 30 min; control for the full effect not named in the record; Potency, µM (doses to about 76.9 µM), for the others: top-dose activity change, negative = inhibition, actives largely listed as inhibitors; 340,000 tested, 0.4% active; active = falling curve of any shape with a large fitted effect; inconclusive = falling curve, mostly with a smaller effect; inactive = flat or rising curve; cell line not stated here;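 further: intracellular cAMP measured with PDE inhibitor Ro 20-1724 present during compound exposure; potency means the concentration at half of the fitted maximal effect; on the % scale 0 is the no-effect control and ±100 the full control effect; nearly all actives have a fitted effect of over 65% in size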
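G418-selected cells were plated in DMEM/10% FBS for 16-24 h at 37C, then treated with compounds plus the PDE inhibitor […] (300 uM solution added) for 30 min at 37C. Intracellular cAMP was measured by HTRF after 30 min lysis at room temperature.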
Numbers without * were called inactive; ? = inconclusive; / = not tested or not shown; & = joins results of further samples; [ ] = another dose, or the depositor's remark.

SMILES	ClpP mod	TRPML1 inh	gsp ag	TRPML1 agonist	Menin MLL FP FL	gsp antag
COC(=O)CSc1nnc(-c2ccc(OC)c(OC)c2)o1	/	-2.8	-24.2%	-0.3	-2.4	-7.1%
S=c1[nH]nc(-c2ccc(Cl)cc2)n1-c1ccc2c(c1)OCCO2	-6.4%	-15.7	?	2.8	/	-5.6%
Cc1ccc([C@H]2C[C@H](n3cc(COC(=O)c4ccccc4)nn3)[C@@H](O)CN2CC2CCCCC2)cc1	-0.8%	3.5	37.6%	0.1	/	/
O=C1C(Cl)=C(N2CCOCC2)C(=O)N1c1cccc(Cl)c1	1.9%	6.7	-24.1%	-0.6	4.8	-0.4%
CCOC(=O)c1ccc2nc(C)c(CC)c(Cl)c2c1	/	24.9	4.3%[15.4 µM]	-0.7	5.5	6.6%
Cc1coc2c1c(C)cc1oc(=O)c(CC(=O)N[C@@H](CC(C)C)C(=O)O)c(C)c12	3.3%	15.2	18.7%	2.8	-7.4	4.8%
CC(=O)Nc1ccc(NC(=O)C(C)OC(=O)c2c(C)nn(-c3ccccc3)c2Cl)cc1 (configuration not stated)	1.3%	-6.4	-17.8%	2.1	/	-13.5%
COc1ccc(C(=O)/C=C/Nc2ccc(S(N)(=O)=O)cc2)cc1OC	/	-9.8	-38.1%[15.4 µM]	0.3	-6.9	-1.8%
O=C(NC(=S)Nc1cc(S(=O)(=O)N2CCOCC2)ccc1O)c1ccco1	/	3.3	12.9%	-0.1	-1.6	-11.6%
CCN1C(=O)N[C@@H](c2ccco2)C(C(C)=O)=C1C	2.6%	8.8	/	-0.9	-2.4[11.7 µM]	7.6%
COc1ccc(CC(=O)Oc2ccc(F)cc2)cc1	0.0%	0.1	5.3%	1.1	0.0	3.5%
CCOC(=O)c1ccc(NC(=O)CNC(=O)c2ccccc2)cc1	-1.2%	-7.3	?	-0.4	2.7	-4.2%
CCC(CC)C(=O)Nc1ccc(-c2cn3cccnc3n2)cc1	3.8%&3.9%	-8.7&0.7	?	0.9&-0.4	-2.3	6.6%
CC(C)n1c(-c2ccccc2F)n[nH]c1=S	-4.7%	-11.2	?	0.1	2.3	10.1%
OCC(CO)(CO)NCC(O)CN1c2ccccc2Sc2ccccc21 (configuration not stated)	-3.1%	1.1	?	-0.4	2.6	-3.2%
O=C1C2C3C=CC(C3)C2C(=O)N1c1cccc2ccccc12 (configuration not stated)	0.1%	-11.6	0.6%	0.9	-0.1	8.8%
Cc1ccc(-n2cc(CN3CCCN(C=O)CC3)c(-c3ccc(F)cc3)n2)cc1	/	0.3	-24.6%[15.4 µM]	0.0	-0.5	-25.7%
CCCn1c(SCC(=O)Nc2ccccc2Oc2ccccc2)n[nH]c1=O	3.3%	-5.7	-12.7%	-0.6	3.0	-11.7%
CN1C(=O)/C(=C/c2ccc3c(c2)OCO3)N=C1c1ccccc1	1.3%	12.3	0.6%	3.7	/	-1.5%
CN(C)/C=C(\C(=O)c1ccccc1)c1nnnn1-c1ccccc1	-1.3%	14.0	6.8%[15.4 µM]	-0.1	4.1	-1.2%
COc1ccc(-c2cc3c(c4c2ccn4C)C2CCC3O2)cc1OC (configuration not stated)	4.2%	-12.1	/	0.7	/	/
O=C(NC1CCCCC1)N1CCC(c2nc3ccc(Cl)cc3[nH]2)CC1	-1.0%	-14.0	-43.4%	1.7	2.5	-9.8%
CC1=C(C(=O)OC(C)(C)C)C(c2cccc3ccccc23)NC(=O)N1 (configuration not stated)	-1.3%	20.0	14.7%	2.5	-1.6	6.7%
COc1ccc(NC(=O)c2cc(-c3cccs3)on2)cc1	/	-10.4	-21.4%[15.4 µM]	0.7	-3.8	1.9%
COc1ccc(C(=O)NCC2(N3CCN(C)CC3)CCCCC2)cc1	1.7%	-2.2	/	1.2	/	/
COc1ccc2nc(NC(=O)c3ccccc3F)sc2c1	4.2%	/	0.8%	/	-1.1	1.4%
CCOC(=O)c1ccc(NC(=O)Cn2cccc2)cc1	0.6%	9.1	-54.0%[inhibitor]	-0.6	2.7	1.6%
O=C(CCNC(=O)c1ccccc1Cl)N/N=C\c1ccc(O)cc1	-10.3%	/	?	/	-1.0	-9.4%
CCOc1ccc(NC(=O)C(=O)NCc2ccco2)cc1	-1.4%	-21.7	/	-0.2	/	/
CCCNS(=O)(=O)c1ccc(OCC(=O)Nc2ccc3c(c2)OCO3)cc1	/	-4.2	2.1%[15.4 µM]	-0.1	-3.6	0.1%
O=C(COC(=O)c1cccc(S(=O)(=O)N2CCCCC2)c1)NC1CCCCC1	2.0%	2.7	-1.0%	0.1	/	-4.8%
COc1ccc(-n2c(N)c(C(=O)NCC3CCCO3)c3nc4ccccc4nc32)c(OC)c1 (configuration not stated)	31.6µM*	2.8	-9.5%	-0.5	1.2	-23.2%
COc1ccc(C2C(C#N)=C(/N=C/N3CCOCC3)OC3=C2C(=O)CC(C)(C)C3)cc1OC (configuration not stated)	-0.2%	28.4	?	-0.3	-4.2	-1.5%
Cc1occc1-c1nnc(SCC(=O)NC2CCCCC2C)o1 (configuration not stated)	-2.5%	-0.9	20.8%	-0.8	/	-4.8%
CCCc1cc(=O)oc2cc(OCc3cc(OC)c(OC)c(OC)c3)c(Cl)cc12	-3.4%	-9.7	?	1.1	-1.0	-26.5%
Cc1ccc(NC(=O)CN(C)S(=O)(=O)c2cccc3nsnc23)c(C)c1	-0.5%	8.2	/	0.1	/	/
CCCN1CCN(CCCNC(=O)c2cc3c(s2)-c2ccccc2OC3)CC1	3.6%&3.7%	12.9&-1.1	0.8%	-0.6&2.0	-0.4	2.5%
COc1cc(C)ccc1OCc1cc(C(=O)N2CCCCCCC2)no1	2.4%	2.9	-6.5%	2.5	/	-24.4%
O=C(N/N=C\c1cccc(Cl)c1)c1n[nH]c2c1CCCC2	/	-9.3	0.7%	-0.4	0.6	-12.3%
CCC1(C)Cc2ccccc2C(=S)N1 (configuration not stated)	/	-12.2	27.0%	0.7	1.7	7.3%
O=C(COC(=O)c1ccc(N2CCOCC2)c([N+](=O)[O-])c1)Nc1ccc2c(c1)OCO2	1.4%	7.8	-6.0%	0.0	/	-2.5%
C=C(C)CNC(=S)NNC(=O)c1ccc(Br)cc1	-2.5%	1.5	0.3%[15.4 µM]	-0.7	1.0	7.2%
CSc1nnnn1-c1c(C)cccc1C	-2.6%	21.5	13.8%	0.0	-0.5	7.1%
CCOC(=O)c1sc(NS(=O)(=O)c2ccccc2)nc1C	1.4%	0.1	3.5%	-0.4	7.9	-17.5%
O=C(O)c1ccc(/C=N/n2c(C3CCCCC3)n[nH]c2=S)cc1	/	-17.5	11.8%	0.1	1.8	-5.7%
COC(=O)c1ccc2nc(C)cc(Nc3ccc(N(C)C)cc3)c2c1	1.7%	16.2	0.3%	-1.0	9.9	-8.7%
COc1cccc(CNC(=O)CCC2CCCN(C(=O)CCc3c(C)noc3C)C2)c1 (configuration not stated)	/	2.9	-20.0%	-0.6	0.5	-7.9%
CCOC(=O)N1CCN(Cc2nc3cc(NC(=O)c4ccccc4OC)ccc3n2C(C)C)CC1	-1.4%	-13.4	/	1.6	/	/
Cc1ccccc1NC(=O)Cn1c(=O)oc2ccccc21	-3.3%	6.4	-9.2%	-0.2	-0.5	-3.8%
CC1CN(c2cc(=O)n(Cc3ccc(F)cc3)c(=O)[nH]2)CC(C)O1 (configuration not stated)	0.7%	-7.1	-42.8%[inhibitor]	0.0	-2.4	8.2%
CC(=O)Nc1cccc(OCC(=O)NC(C)C(C)C)c1 (configuration not stated)	-1.5%	3.0	-22.2%	-0.3	-0.2	-3.7%
CN1C(=O)CN(CCN2CC(=O)N(C)C(=O)C2)CC1=O	1.4%	-2.7	18.2%	0.2	/	/
O=C(C1CCCN1S(=O)(=O)c1ccc(Cl)cc1)N1CCN(c2ccccc2)CC1 (configuration not stated)	/	-1.8	-10.5%	1.4	/	-1.7%
CCOc1ccc(N)cc1OC	/	6.0	24.8%[15.4 µM]	-0.7	-14.8	-4.5%
COc1ccccc1/C=C/C(=O)OCC(=O)c1c[nH]c2ccccc12	-22.9%	1.7	-2.6%	0.7	/	-10.9%
Cc1cc(C)c(NC(=O)CN(C)C(=O)c2ccc(OCc3ccccc3)cc2)c(C)c1	-1.2%	2.2	0.9%	0.9	/	7.8%
CCOc1c(CC2C(=O)Nc3ccc(Br)cc32)cccc1OC (configuration not stated)	-1.4%	-9.8	/	3.1	/	/
COc1ccc(C)cc1NC(=O)CN1C(=O)c2ccccc2S1(=O)=O	-0.8%	-6.9	-17.7%	-0.6	1.5	-4.9%
COc1ccc(Cc2nnc(NC(=O)CSc3ccccc3)s2)cc1	0.9%	-6.9	-23.1%	0.7	2.5	2.6%
Cc1cc(C)c(C)c(S(=O)(=O)N[C@@H](C)C(=O)OC(C)C(=O)NC(N)=O)c1C (some centres not stated)	-0.5%	16.0	-1.8%	-0.7	0.3	2.8%
(list continues)
SMILES	ClpP mod	TRPML1 inh	gsp ag	TRPML1 agonist	Menin MLL FP FL	gsp antag
CCc1cc2c(COC(=O)c3cc(S(=O)(=O)N4CCOCC4)ccc3F)cc(=O)oc2cc1O	-1.6%	1.2	-14.9%	5.5	/	3.8%
O=C(COC(=O)c1cn(-c2ccccc2)nc1-c1cccnc1)NC1CC1	-1.1%	-11.5	?	2.6	-1.3	-6.4%
Cc1cc(NC(=O)c2ccc3c(c2)N(Cc2cccc(Cl)c2)C(=O)c2ccccc2S3(=O)=O)ccc1Br	?	33.7	/	1.4	/	/
CCSc1nc2ccccc2c(OCc2ccc(Cl)cc2)c1C(=O)OC	-4.5%	40.2	/	0.1	/	/
O=C(/C=C/c1ccco1)Nc1cc(Cl)ccc1C(=O)O	-9.4%	6.3	9.6%	1.7	14.2	?
COc1ccccc1N1CCN(CC(=O)Nc2ccc3c(c2)OCCO3)CC1	-1.8%	25.1	14.4%	0.7	0.3	1.5%
O=C(NCC1(N2CCOCC2)CCCCC1)c1ccc(S(=O)(=O)Nc2ccccc2F)cc1	-1.6%	-10.5	-1.9%[15.4 µM]	0.0	/	4.1%

Random draw from the library; about 2.1% have a hit in one of these screens.
